Screens as filed in PubChem BioAssay.
KCNQ2 inh: KCNQ2 channel blockers in CHO-K1 cells – cell-based, FluxOR thallium flux, B-score, primary screen (AID 2156). O88943. 20 min; hits give low values; only compounds with negative scores are shown here; some inactives read as strong as hits. B-score at 10 µM. hit rate 1.1% among 310,000;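 active = fluorescence ratio B-score at most minus 3 library SDs, with starting brightness B-score within 2 library SDs, cut at about -5.5 in these data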
Target sequence (O88943 whole entry, looked up): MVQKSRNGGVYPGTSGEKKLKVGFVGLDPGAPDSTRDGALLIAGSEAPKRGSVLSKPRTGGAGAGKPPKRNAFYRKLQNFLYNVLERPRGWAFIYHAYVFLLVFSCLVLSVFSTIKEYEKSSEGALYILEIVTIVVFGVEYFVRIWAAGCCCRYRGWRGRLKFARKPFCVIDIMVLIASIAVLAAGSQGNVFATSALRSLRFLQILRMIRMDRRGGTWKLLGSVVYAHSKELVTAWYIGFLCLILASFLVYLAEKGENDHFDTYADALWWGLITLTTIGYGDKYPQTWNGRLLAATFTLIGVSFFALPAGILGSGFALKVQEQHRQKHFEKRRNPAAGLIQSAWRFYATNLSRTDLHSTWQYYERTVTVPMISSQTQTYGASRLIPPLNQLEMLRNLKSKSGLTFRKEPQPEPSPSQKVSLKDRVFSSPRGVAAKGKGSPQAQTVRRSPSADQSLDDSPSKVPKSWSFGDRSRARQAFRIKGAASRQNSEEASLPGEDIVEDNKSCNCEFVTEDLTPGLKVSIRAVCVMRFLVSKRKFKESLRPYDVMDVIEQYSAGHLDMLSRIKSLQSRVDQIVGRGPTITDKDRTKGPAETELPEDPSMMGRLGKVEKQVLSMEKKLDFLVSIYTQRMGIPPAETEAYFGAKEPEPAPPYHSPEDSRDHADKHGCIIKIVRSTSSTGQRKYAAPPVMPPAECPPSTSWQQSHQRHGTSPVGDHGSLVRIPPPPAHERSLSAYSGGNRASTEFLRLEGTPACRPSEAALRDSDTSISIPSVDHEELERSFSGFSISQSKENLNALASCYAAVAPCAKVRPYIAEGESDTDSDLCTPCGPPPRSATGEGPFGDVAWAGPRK
KCNQ2 inh baseline: recorded beside KCNQ2 inh, whose call it bears; B-score; measured here: initial fluorescence intensity artifact check;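 brightness before thallium and not channel activity; 0 = typical well and far values either way flag optical interference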
The depositor's hits bear a star; i = inactive. The list is partial; the hit share may differ from the screen's.

Start of the listing, in advance, 17 compounds:
SMILES	KCNQ2 inh	KCNQ2 inh baseline
Cc1cccc(NS(=O)(=O)c2csc(C(N)=O)c2)c1	i	0.98
Cc1cccc(C)c1N(Cc1ccccc1F)S(C)(=O)=O	i	0.34
CC(C)Oc1ccc(C(CC(=O)O)n2cnnn2)cc1 (stereo unspecified)	i	-0.59
Cc1ccc(Cl)cc1N1CCN(C2CCCCC2NS(=O)(=O)c2ccccc2)CC1 (stereo unspecified)	i	0.07
NS(=O)(=O)c1ccc(CNC(=O)/C=C/c2ccco2)cc1	i	0.87
Cc1ccc(CNC(=O)Cc2noc3ccccc23)cc1	i	0.02
C=CCN(Cc1cccc(OC)c1OC)S(=O)(=O)N(C)C	i	2.6
O=C(COC(=O)c1c(Cl)cccc1Cl)Nc1cc(Cl)ccc1Oc1ccccc1	i	1.5
Cc1ccc(-c2nc3ccccc3c(=O)n2CCCn2ccnc2)cc1	i	4.1
CCOc1ccc(-c2ccc(/C=C3/C(=N)N4C=CSC4=NC3=O)o2)c([N+](=O)[O-])c1	i	1.9
C/C(=N\NC(=S)NC1CCCCC1)c1ccc(OC(F)F)cc1OC(F)F	i	0.65
COc1ccc(NC(=O)c2ccc(-n3cccn3)nc2)c(OC)c1	i	-1.2
COc1ccc(-n2c(=O)c3c4c(sc3n3cnnc23)CC(C)CC4)cc1 (stereo unspecified)	i	0.35
CC(=O)N1CCC2(CC1)C/C(=N\NC(=S)Nc1ccc(C)cc1)c1cc(O)ccc1O2	i	-0.2
COc1cccc(-n2c(SCC(=O)NCc3cccs3)nc3ccccc3c2=O)c1	i	-0.94
COc1ccc(CC(=O)N/N=C/c2c(C)n(C)c3ccccc23)cc1OC	i	-0.92
CC1=C(C(=O)Nc2ccccc2)C(c2ccc(C)o2)n2c(s/c(=C/c3ccccc3)c2=O)=N1 (stereo unspecified)	i	-0.67

The whole of this part, repeating the preview:
SMILES	KCNQ2 inh	KCNQ2 inh baseline
Cc1cccc(NS(=O)(=O)c2csc(C(N)=O)c2)c1	i	0.98
Cc1cccc(C)c1N(Cc1ccccc1F)S(C)(=O)=O	i	0.34
CC(C)Oc1ccc(C(CC(=O)O)n2cnnn2)cc1 (stereo unspecified)	i	-0.59
Cc1ccc(Cl)cc1N1CCN(C2CCCCC2NS(=O)(=O)c2ccccc2)CC1 (stereo unspecified)	i	0.07
NS(=O)(=O)c1ccc(CNC(=O)/C=C/c2ccco2)cc1	i	0.87
Cc1ccc(CNC(=O)Cc2noc3ccccc23)cc1	i	0.02
C=CCN(Cc1cccc(OC)c1OC)S(=O)(=O)N(C)C	i	2.6
O=C(COC(=O)c1c(Cl)cccc1Cl)Nc1cc(Cl)ccc1Oc1ccccc1	i	1.5
Cc1ccc(-c2nc3ccccc3c(=O)n2CCCn2ccnc2)cc1	i	4.1
CCOc1ccc(-c2ccc(/C=C3/C(=N)N4C=CSC4=NC3=O)o2)c([N+](=O)[O-])c1	i	1.9
C/C(=N\NC(=S)NC1CCCCC1)c1ccc(OC(F)F)cc1OC(F)F	i	0.65
COc1ccc(NC(=O)c2ccc(-n3cccn3)nc2)c(OC)c1	i	-1.2
COc1ccc(-n2c(=O)c3c4c(sc3n3cnnc23)CC(C)CC4)cc1 (stereo unspecified)	i	0.35
CC(=O)N1CCC2(CC1)C/C(=N\NC(=S)Nc1ccc(C)cc1)c1cc(O)ccc1O2	i	-0.2
COc1cccc(-n2c(SCC(=O)NCc3cccs3)nc3ccccc3c2=O)c1	i	-0.94
COc1ccc(CC(=O)N/N=C/c2c(C)n(C)c3ccccc23)cc1OC	i	-0.92
CC1=C(C(=O)Nc2ccccc2)C(c2ccc(C)o2)n2c(s/c(=C/c3ccccc3)c2=O)=N1 (stereo unspecified)	i	-0.67
COc1ccccc1CNC(=O)COC(=O)c1cc(-c2ccco2)nc2ccccc12	i	0.75
O=C(C1=C[C@@H](c2ccccc2)C[C@@H](OCc2ccc(CO)cc2)O1)N1CCCCCCC1	i	0.05
O=C(N/N=C/c1ccccc1O)c1cc[n+]([O-])cc1	i	0.3
CN1CCN(Cc2nc3c(c(=O)[nH]c(=O)n3C)n2Cc2c(F)cccc2Cl)CC1	i	0.19
CSc1cccc(NS(=O)(=O)c2cc(Br)cnc2N)c1	i	-1.6
COc1ccccc1NC(=S)N(c1ccccc1)C(C)C	i	0.92
Cc1ccc(-n2cc(CN3CCCN(C=O)CC3)c(-c3ccc(F)cc3)n2)cc1	i	0.05
O=C(NCCNC1CCN(Cc2ccccc2)CC1)c1cccs1	i	1

Next entries.
SMILES	KCNQ2 inh	KCNQ2 inh baseline
COc1ccc(CC(=O)Nc2c(C(=O)N3CCN(c4ccccc4)CC3)oc3ccccc23)cc1OC	i	-1.2
COc1cccc(/C=N/NC(=O)c2cc(C34CC5CC(CC(C5)C3)C4)[nH]n2)c1	i	-1.7
O=C(CSc1nnc(-c2ccc(Br)cc2)o1)Nc1cccc2ccccc12	i	0.67
COc1cccc(NC(=S)NCc2ccc3c(c2)cc(C)n3C)c1	i	0.02
COC(=O)c1sccc1NC(=O)c1cccc(OC)c1	i	-0.99
COc1cccc(-c2cc(=O)[nH][nH]2)c1	i	0.48
CN(C)S(=O)(=O)N1CCN(c2ccccc2Cl)CC1	i	0.19
CCOC(=O)C1CCN(C(=O)c2cccnc2Cl)CC1	i	-0.71
O=C(Nc1ccc(Cl)cc1C(=O)NCC1CCCO1)c1ccc(Cl)cc1Cl (stereo unspecified)	i	0.21
O=C(COc1ccc(Br)cc1CO)N1CCCc2ccccc21	i	0.98
COC(=O)c1cc(OC)c(OC)cc1-n1cnc2cc(OC)c(OC)cc2c1=O	i	-0.55
COc1ccccc1C1=NN(C(=S)Nc2ccccc2)C(c2ccco2)C1 (stereo unspecified)	i	2.6
Cc1ccc(-c2ccc([C@H]3[C@@H]4C=CCC[C@@]4(C)C(=O)N3Cc3ccccc3)c(F)c2)cc1	i	-0.26
Cc1ccc(SCC(=O)N=C2NC(=O)CS2)cc1	i	-1.4
CCc1ccc(-c2nc(CN3CCC(C(=O)NCCc4ccc(OC)c(OC)c4)CC3)c(C)o2)cc1	i	-1.3
CC(C)CC(=O)Nc1c2c(nn1-c1ccc(F)cc1)CSC2	i	-1.2
Cc1ccc(C(=O)COc2cc(C)nc3nncn23)cc1	i	0.07
COc1ccc(NC(=O)CSc2nnc(N)s2)c([N+](=O)[O-])c1	i	0.27
O=C(O)CCN1C(=O)c2ccccc2C1=O	i	0.05
COc1cccc(-n2c(SCC(=O)OC(C)C)nnc2-c2cccnc2)c1	i	0.4
COc1ccc(/C=C/C(=O)c2ccccc2)cc1Cn1nnc2ccccc21	i	-1.4
Cc1nn(C)cc1/C=N/NC(=S)Nc1ccccc1	i	-0.58
CCN(c1cccc(C(F)(F)F)c1)S(=O)(=O)c1ccc2c(c1)CCN2C(C)=O	i	-0.42
O=C1/C(=C/c2ccncc2)SC(=S)N1C1CCS(=O)(=O)C1 (stereo unspecified)	i	1.2
COc1cccc(Oc2ccc3nnc(C(F)(F)F)n3n2)c1	i	1.6

Next section:
SMILES	KCNQ2 inh	KCNQ2 inh baseline
CC1=C(C)CC(C(=O)Nc2cccc([N+](=O)[O-])c2)C(C(=O)O)C1 (stereo unspecified)	i	2.2
O=C(O)/C(=C\c1cccs1)c1ccc(F)cc1	i	-2.5
O=[N+]([O-])c1ccc(C2NS(=O)(=O)N=C3CCCCCN32)cc1 (stereo unspecified)	i	0.41
CCCCCCC1CCC(C(=O)NC(CCSC)C(=O)NC(C(=O)OC)C(C)C)CC1 (stereo unspecified)	i	-1.8
CC1CCN(c2ccccc2NC(=S)NC(=O)C(C)(C)C)CC1	i	0.82
CCOCCCn1c(=S)[nH]c2cc(C(=O)N3CCC(C(N)=O)CC3)ccc2c1=O	i	0.1
Cc1cc(C)n(NC(=S)NC2CCCCC2)c(=O)c1C#N	i	0.55
NNC(=O)c1oc2ccccc2c1-n1cccc1	i	2.6
S=C1NCN(Cc2ccco2)CN1c1ccccc1	i	-0.46
Cc1cccc(-n2cnc(C(=O)NC3CCCCCC3)c2)n1	i	-1
CCn1c(=O)c2cc(C(=O)NC(C)C)sc2c2ccccc21	i	0.48
CC(=O)Nc1ccc(C(=O)N/C(=C/c2ccccc2)C(=O)NCc2ccco2)cc1	i	-0.2
CC(/C=C/C1(O)C(C)CC(O)CC1(C)C)OC1OC(CO)C(O)C(O)C1O (stereo unspecified)	i	-0.31
Cc1cccc(C(=O)NNc2ncnc3c2cnn3C)c1	i	-1.7
Cc1cccc(/C=C2\Sc3ccc(C(=O)N4CCC(C)CC4)cc3N(C)C2=O)c1	-6.5*	0.07*
Cc1cccc(NC(=S)NNC(=O)CC(C)O)c1C (stereo unspecified)	i	-0.91
O=[N+]([O-])c1ccc(N2CCN(Cc3ccc4c(c3)OCO4)CC2)nc1	i	-0.46
COCCC(=O)N1CCC(Oc2ccc(C(=O)NCc3nccn3C)cc2)CC1	i	-2.5
Cc1ccc(NS(=O)(=O)c2ccc3c(c2)n(C)c(=O)n3C)cc1	i	0.82
CCc1ccc(NC(=O)Cc2ccc(NC3=NC4CS(=O)(=O)CC4S3)cc2)cc1 (stereo unspecified)	i	1.6
C#CCOc1nc(OCC#C)nc(OCC#C)n1	i	0.23
O=C(O)CC(c1ccc(C(F)(F)F)cc1)N1Cc2ccccc2C1=O (stereo unspecified)	i	0.26
CN(C)C(CNC(=O)CCc1nc2sc3c(c2c(=O)[nH]1)CCCC3)c1ccccc1 (stereo unspecified)	i	1.6
O=C(c1cccc(C(F)(F)F)c1)N1CCN(CCc2ccccc2)CC1	i	-0.16
CCOC(=O)C1C(c2ccccc2)C(C(=O)OCC)S(=O)(=O)C(CCN(CC)CC)S1(=O)=O (stereo unspecified)	i	0.19

Remaining list, next part
SMILES	KCNQ2 inh	KCNQ2 inh baseline
COc1cc(C(=O)N(C)C2CCCCC2)ccc1OC1CCN(C(C)=O)CC1	i	0.81
O=S(=O)(c1cc(C(F)(F)F)ccc1Cl)N1CCN(c2ccccn2)CC1	i	0.78
CCc1nc2c(sc3nc4c(cc32)COC(C)(C)C4)c(=O)n1Cc1ccccc1	i	-0.73
CCCCC(CC)C(=O)Nc1cc(C(=O)NCCC)ccc1N1CCC2(CC1)CC(c1cccc(Br)c1)=NO2 (stereo unspecified)	i	-0.03
C/C(Cc1ccccc1)=N\NC(=O)CNC(=O)c1ccc(Cl)cc1	i	0.25
CCOC(=O)c1sc(N(Cc2ccccc2)C(=O)COC(=O)c2ccc(O)cc2)nc1C	i	2.4
COc1ccc(-c2ccc(=O)n(Cc3cccc(Cl)c3)n2)cc1	i	0.55
Fc1ccc(Nc2nc(Oc3ccccc3F)nc(N3CCCC3)n2)cc1	i	-0.53
Cc1nc2ccccc2c(=O)n1CCc1ccccc1	i	-0.49
O=C(CCNC(=O)c1ccccc1)Oc1ccc([N+](=O)[O-])cc1	i	2.3
COc1cc([N+](=O)[O-])ccc1-c1ccc(/C=N/NC(N)=O)o1	i	1.4
Cc1ccc(C(=O)CC2(O)C(=O)N(C)c3ccccc32)o1 (stereo unspecified)	i	1.1
COc1cccc(-c2cc(C(=O)Nc3ccc(N(C)C(C)=O)cc3)c3cc(Br)ccc3n2)c1	i	-1.3
O=C(NC(=S)Nc1ccc(Cl)cn1)C(c1ccccc1)c1ccccc1	i	-0.39
COc1ccc(OC)c(NC(=O)N2CCCC(C(=O)c3ccccc3OC)C2)c1 (stereo unspecified)	i	0.4
O=C(NCc1ccco1)c1cc(-c2ccc3c(c2)OCO3)on1	i	-0.13
CC(=O)N1CCN(S(=O)(=O)c2cccc(C(=O)NNC(=O)COc3ccc(Cl)cc3C)c2)CC1	i	1.9
CC1Nc2ncnc(N3CCOCC3)c2N(Cc2ccc(Cl)cc2)C1=O (stereo unspecified)	i	-0.15
O=C(c1cc2nc(-c3ccc(Cl)cc3)cc(C(F)(F)F)n2n1)N1CCOCC1	i	-1
CCOC(=O)c1cc2c(=O)n3ccccc3nc2n(C(C)C)c1=NC(=O)c1c(-c2ccccc2Cl)noc1C	i	2.4
Cc1ccc(NC(=O)CCC(=O)c2cc(C)sc2C)nc1	i	1.4
O=C(Nc1ccc(-c2nc3ccccc3[nH]2)cc1)c1c(F)c(F)c(F)c(F)c1F	i	0.25
CCS(=O)(=O)c1ccc2oc(Nc3cc(Cl)ccc3OC)nc2c1	i	-0.58
CCCNC(=O)Cc1c(OC)ccc2cc(Br)ccc12	i	-1.1
Cc1ccc2c(=O)oc(N(C)C)nc2c1	i	-3.6

Other records
SMILES	KCNQ2 inh	KCNQ2 inh baseline
CCNc1sc(C(=O)c2cccs2)c(N)c1-c1nc2ccccc2s1	i	0.67
O=C(Nc1ccccc1OC(F)F)c1ccc(Br)o1	i	0.18
COc1ccc(N(Cc2cc3ccccc3[nH]c2=O)S(=O)(=O)c2ccccc2)cc1	i	0.45
O=C(Nc1ccc2c(c1)OCCO2)c1cccc(Cl)c1Cl	i	-1.6
CCCC(C(=O)n1nc(C)cc1C)C(NS(=O)(=O)c1ccc(C)cc1)c1ccccc1 (stereo unspecified)	i	0.01
Cc1cc(C(=O)CSc2nnc(-c3ccco3)o2)c(C)n1CC1COc2ccccc2O1 (stereo unspecified)	i	-0.11
O=c1cc(CN2CCN(c3cccc(Cl)c3)CC2)c2cc(O)c(-c3ccccc3)cc2o1	i	1.9
COC(=O)c1ccccc1NC(=O)c1cnc2sccn2c1=O	i	0.01
CC[n+]1c(C)cc(C)n1-c1ccccc1	i	1.8
Cc1cc(C)c(S(N)(=O)=O)c(C)c1-n1cnnn1	i	1.4
Cc1snc(S(=O)(=O)/C(C#N)=N/Nc2ccc(C(F)(F)F)cc2)c1C#N	i	0.08
CC(=O)c1ccc(NC(=O)COC(=O)c2nc(Cl)ccc2Cl)cc1	i	-0.39
O=C1CC(SC(=Nc2ccccc2)Nc2ccccc2)C(=O)N1c1cccc(Cl)c1 (stereo unspecified)	i	0.61
CC(Sc1nnc(CC(C)c2ccccc2)n1N)C(N)=O (stereo unspecified)	i	0.64
O=C(O)CNS(=O)(=O)c1ccc2c(c1)Cc1cc(S(=O)(=O)NCC(=O)O)ccc1-2	i	0.69
CC(C)Cn1c(N)c(C(=O)COC(=O)C2CCCCC2)c(=O)n(C)c1=O	i	1.4
Cc1nn(C(C)(C)C)c(OC(=O)C2CCCC2)c1S(=O)(=O)c1ccccc1	-6*	-0.76*
CC(C)OC(=O)c1cc(C(=O)c2cc(F)ccc2O)coc1=N	i	1.4
